VACV mCherry inh – inhibitors of vaccinia virus infection (mCherry reporter signal); Vaccinia virus mCherry reporter infection, fluorescence; about a quarter of the inactives have no number; Potency, µM (doses to about 36.5 µM), for inactives: top-dose activity change, negative = inhibition, usual class: inhibitors; 0.63% of 310,000 active; AID 720579; active = well fitted inhibition curve with a large enough effect; inconclusive = small, poorly fitted or top-dose-only effect; inactive = no such curve, though single readings can be large or run the other way; tested in A549 cells; note: nearly all actives have a fitted effect of over 35% in size; inactives centre near -10
Vaccinia Venus – vaccinia inhibition (Venus reporter); Vaccinia virus Venus reporter expression, fluorescence; Potency, µM (top dose mostly 36.5 µM), for the others: at the highest dose activity change, negative = inhibition, actives largely listed as inhibitors; 0.46% of 330,000 active; AID 720580; active means well fitted inhibition curve with a large enough effect; inconclusive means small, poorly fitted or top-dose-only effect; inactive means no such curve, though single readings can be large or run the other way; tested in A549 cells; note: nearly all actives have a fitted effect of over 30% in size; inactives centre near -10
* marks the source's active call; other numbers are inactive results; i = inactive; u = inconclusive; x = not tested or not shown; & = joins results of further samples; [ ] = remark or other dose. % is set by controls: 0 for no effect and ±100 for the full control effect; potency is the fitted concentration of half-maximal effect.

SMILES	VACV mCherry inh	Vaccinia Venus
Cc1ccc(C2CC(=O)NC(SCC(=O)OCc3ccccc3)=C2C#N)o1 (configuration not stated)	x	u
O=c1oc2cc(O)ccc2cc1-c1ccc(F)cc1	-19%	-3%
O=C(O)c1cc(O)c(O)c(O)c1	u	u
COc1ccccc1-c1ccc(NC2CCCC2)nn1	x	-14%
Cn1c(SCC(=O)N2CCCC2=O)nnc1-c1ccccc1F	-3%	1%
C[C@H](O)Cc1cc2ccccc2c(=O)o1	-14%	-3%
CC(=O)c1cc2c(cc1NC(=O)CCc1c(C)nc3ncnn3c1C)OCO2	-19%	-7%
Cc1cc(C(=O)CSc2nnc(-c3cccnc3)n2-c2ccccc2)c(C)n1CC1CCCO1 (configuration not stated)	i	-4%
O=C(Nc1ccc(N2CCOCC2)c(Cl)c1)c1c(F)c(F)c(F)c(F)c1F	-20%	-17%
COc1ccccc1NC(=O)Nc1nc(CC(=O)NC2CCCC2)cs1	-3%	-24%
CCOC(=O)c1cccc(NC(=S)NCc2ccc(C)cc2)c1	i	-2%
Cn1cnnc1Sc1ccc(/C=C(\CCC(=O)O)c2nc3ccccc3s2)cc1[N+](=O)[O-]	-1%	-5%
Cc1cc(-c2nc3ncccc3o2)ccc1NC(=O)c1ccc(Br)cc1	30%	34%[activator]
O=C(NCCN1CCOCC1)c1ccc2c(c1)N(Cc1ccccc1F)C(=O)CS2	-18%	-12%
Cc1cc(C)c2nc(SCC(=O)N3CCCCC3)c(C#N)cc2c1	x	-11%
N#Cc1c(NC(=O)c2cnccn2)sc2c1CCCC2	-26%	-17%
Cc1ccc(OCCC(=O)OCC(=O)Nc2ccc3[nH]c(=O)[nH]c3c2)cc1	-14%	-7%
O=C(NCCN1CCOC1=O)C1CCC(=O)N(CCc2ccc(Cl)cc2)C1 (configuration not stated)	-11%	-7%
Cc1ccc(Cn2c(=N)n(CC(=O)c3ccc([N+](=O)[O-])cc3)c3ccccc32)cc1	i	-6%
Cc1cccc(-n2cc(-c3ccccc3)[nH]c2=S)c1	-11%	-8%
CCOC(=O)c1ccc(NC(=O)CSc2nnc(COc3ccccc3OC)n2CC)cc1	x	-11%
CCC1CCc2sc(C(=O)N(C)CC(=O)Nc3cccc(OC)c3)cc2C1 (configuration not stated)	i	-9%
Cc1cc2nc(C3CCCN(C(=S)Nc4ccccc4)C3)[nH]c2cc1C (configuration not stated)	-14%	-28%
O=S(=O)(Nc1nc2ccccc2nc1Nc1ccc2c(c1)OCO2)c1ccc(F)cc1	-12%	-13%
COc1ccc(-c2cccc(NS(=O)(=O)c3cccc([N+](=O)[O-])c3)c2)nn1	-22%	-2%
C[C@H]1CN([C@@H](C)CO)C(=O)CCCn2nncc2CO[C@H]1CN(C)C(=O)Nc1ccc(N2CCCCC2)cc1	u	-8%
COc1ccc(C(=O)Nc2nncs2)cc1S(=O)(=O)N1CC(c2ccccc2)CC1=O (configuration not stated)	-4%	-4%
COC(=O)c1ccc(NS(=O)(=O)c2ccc3c(c2)n(C)c(=O)n3C)cc1	-15%	-8%
CC(=O)Nc1c(C(=O)O)[nH]c2ccccc12	x	-16%
COc1ccc(-n2c(SCC(=O)Nc3nccs3)nnc2-c2ccoc2C)cc1	-25%	-19%
Oc1c(C(Nc2nc3ccccc3s2)c2ccco2)ccc2cccnc12 (configuration not stated)	2.8µM*	u
CCCCc1ccc(-c2csc(/C(C#N)=C\c3ccco3)n2)cc1	u	3%
COc1ccc2c(c1OC)C(=O)N(c1cccc(C)c1)C2=O	-22%	-13%
Cc1c(O)ccc(NS(=O)(=O)c2ccccc2)c1C	5%	-4%
Cc1cc(C(F)(F)F)nn1Cc1n[nH]c(=S)n1-c1ccc(F)cc1	-4%	5%
O=C(CN1CCN(Cc2ccccc2)CC1)NCc1ccccc1Cl	u	8%
Cc1ccc(O)c(-c2ccnc3cc(-c4ccc(Cl)cc4)nn23)c1	-23%	-13%
COCCNC(=O)C1CCCN(C(=O)c2ccc(F)c(C)c2)CC1 (configuration not stated)	1%	-2%
Cc1ccccc1NC(=O)CSc1nnc2ccc(-c3ccncc3)nn12	u	-14%
CCOc1ccc(NC(=O)CCCc2nnc3n(C)c(=O)c4sccc4n23)cc1	-9%	-15%

Rewritten bar-delimited: entries from further up.
canonical_smiles | VACV mCherry inh | Vaccinia Venus
COc1ccc2c(c1OC)C(=O)N(c1cccc(C)c1)C2=O | -22% | -13%
Cc1c(O)ccc(NS(=O)(=O)c2ccccc2)c1C | 5% | -4%
Cc1cc(C(F)(F)F)nn1Cc1n[nH]c(=S)n1-c1ccc(F)cc1 | -4% | 5%
O=C(CN1CCN(Cc2ccccc2)CC1)NCc1ccccc1Cl | u | 8%
Cc1ccc(O)c(-c2ccnc3cc(-c4ccc(Cl)cc4)nn23)c1 | -23% | -13%
COCCNC(=O)C1CCCN(C(=O)c2ccc(F)c(C)c2)CC1 (configuration not stated) | 1% | -2%
Cc1ccccc1NC(=O)CSc1nnc2ccc(-c3ccncc3)nn12 | u | -14%

(continued)
SMILES	VACV mCherry inh	Vaccinia Venus
N#CC(C(=O)NCCc1ccccc1)c1nc2ccccc2nc1N1CCCCC1 (configuration not stated)	x	-8%
O=C(NCC1c2ccccc2CCN1C(=O)CN1CCOCC1)C1CCCCC1 (configuration not stated)	x	-5%
Cc1ccc2cc(C#N)c(NCc3ccccc3)nc2c1	i	1%
O=C(NC1CCCCCCC1)c1ccc(F)cc1	-14%	-13%
Cc1ccccc1NC(=O)CSc1nc2ccccc2c2nc(CCn3cncc3C)nn12	0%	2%&-11%
C[C@@H]1Cn2cnc(C(=O)NCc3ccc(CNC(=O)OC(C)(C)C)cc3)c2C(=O)N1	-22%	-28%
COc1cccc(-c2nn(-c3ccccc3)cc2CN(C)Cc2ccon2)c1	u	-3%&-7%
O=C(NC(c1ccc(-c2ccccc2)cc1)c1cnccn1)C1CCN(CCN2C(=O)c3ccccc3C2=O)CC1 (configuration not stated)	13%	0%
C[C@H](CO)N1C[C@H](C)[C@@H](CN(C)C(=O)c2ccc(N3CCN(C)CC3)cc2)OCc2cnnn2CCCC1=O	1%	-3%
COC(=O)C1CCN(C(=O)NC(C)(C)C)CC1	-7%	-4%
CCCN(CCC)c1ccc(C(O)c2nnc(-c3ccccc3)o2)cc1 (configuration not stated)	-7%	7%
CCOc1cc(-c2nnc(SCC(=O)Nc3ccc(F)c(F)c3)nc2-c2ccc(OC)c(OCC)c2)ccc1OC	-2%	5%
CCOC(=O)c1ccc(NC(=S)N(CCCN2CCN(CC)CC2)Cc2cccs2)cc1	-4%	-29%
Cn1cc(C(=O)NCC2COc3ccccc3O2)c(=O)c2cc(S(=O)(=O)N3CCCCC3)ccc21 (configuration not stated)	i	2%
Cc1ccc(OCCC(=O)OCC(=O)Nc2ccc(C)c(S(=O)(=O)N3CCOCC3)c2)cc1	-10%	-21%
CN(C)CCNC(=O)Nc1ccc(Cl)c(Cl)c1	-20%	-11%
C[C@@H]1COc2cc(N(C)CCO)ccc2S(=O)(=O)N1	1%	9%
COc1ccccc1C1(O)CCN(CC(=O)Nc2c(C)nn(C)c2C)CC1	-15%	-11%
Cc1cc[n+]2cc(-c3cccc([N+](=O)[O-])c3)c(-c3cccc([N+](=O)[O-])c3)cc2c1	-19%	-15%
COc1ccc(CNC(=O)CCC2N=C3c4ccccc4N=C(SCC(=O)NCCc4ccc(OC)c(OC)c4)N3C2=O)cc1 (configuration not stated)	-5%	-7%
Cc1cc(C)c(C(=O)COC(=O)c2cccc(S(=O)(=O)NCc3ccccc3)c2)cc1C	u	u
CC(C)(C)OC(=O)C[C@H]1C/C=C\C[C@@H](CC(=O)N[C@@H](CO)Cc2ccccc2)C(=O)N2CCC[C@@H]2COC1=O	-20%	-2%
CCOc1ccc(S(=O)(=O)Nc2ccc3c(c2)OCO3)cc1	i	-9%
O=C(Nc1nnc(-c2ccco2)s1)C1CCN(S(=O)(=O)c2ccc(Cl)cc2)CC1	2%	-14%
COC(=O)c1ccc(Cl)cc1NC(=O)NCc1c(-n2cccc2)sc2c1CCCC2	-19%	-25%
CCS(=O)(=O)N1CCC(C(=O)Oc2ccc(Cl)cc2)CC1	-3%	-8%
Cn1c(O)c(N=NC(=O)CNC(=O)c2ccccc2)c2cc(Br)ccc21	4%	0%
CC(C)(C)CC(=O)Nc1nnc(CCc2ccccc2)s1	-4%	u
CCc1nc(OCc2ccccc2)c2sc3nc4c(cc3c2n1)COC(C)(C)C4	-16%	-8%
CC1=C(C(=O)Nc2ccccc2C)C(c2ccc(C)o2)N2C(=O)CSC2=N1 (configuration not stated)	u	0%
COCCNC(=O)C(=O)Nc1cccc(Br)c1	-6%	-8%
CC1=CC(C)C(COC(=O)CN2CCCCC2)C(C)C1 (configuration not stated)	-9%	-15%
CC(=O)c1ccc(N2CCN(C(=O)c3nn(C)c4c3CS(=O)(=O)c3ccccc3-4)CC2)cc1	-13%	-8%
O=C(CSc1nnnn1C1CCCCC1)N1CCc2ccccc21	i	-10%
COc1cccc(-c2nc(SCC(=O)NCC3CCCO3)c(-c3ccc(F)cc3)[nH]2)c1 (configuration not stated)	2%[7.34 µM]	-3%[7.34 µM]
O=C(CNC(=O)c1ccccc1F)OCC(=O)c1ccc(Cl)s1	-6%	-6%
CCn1c(-c2sc(-c3ccccc3)nc2C)n[nH]c1=S	-6%	0%
O=C1C(C=NCc2ccco2)=C(O)c2ccccc21	-16%	-8%
CCn1c(SCC(=O)Nc2ccccc2)nnc1C1CCCCC1	-14%[1.46 µM]	-8%
O=C(Nc1cccc(NC(=O)c2ccccc2[N+](=O)[O-])n1)c1ccccc1[N+](=O)[O-]	-14%	-6%
COc1cccc(CNc2ncn[nH]2)c1OCc1ccc(F)cc1	9%	10%
Cc1nnc(SC(C)C(=O)NCC2CCCO2)s1 (configuration not stated)	-3%	-6%
Cc1ccc(OCC(=O)NC(=S)Nc2cccc(NC(=O)c3ccccc3)c2)cc1	i	-13%
CC(C)N(C(=S)Nc1cc(S(=O)(=O)N2CCOCC2)ccc1Cl)c1ccccc1	-17%	-1%
COC(=O)c1cnn(-c2nc(-c3ccccc3)cs2)c1N	-16%	-8%
Oc1ccc(N=Cc2sc3ccccc3c2Cl)cc1	-11%	5%
CCN(CC)C(=O)c1cc(-c2ccc3c(c2)OCO3)on1	-10%	-19%
Cc1ccc(C)c(N2CCN(C(=O)c3cccn3-c3nnc(N4CCCCC4)s3)CC2)c1	-15%	-11%
Clc1ccsc1-c1csc(-c2cccnc2)n1	x	u
CC(C)CN1CCC(=O)N(CCOc2ccccc2)CC1	-11%	-6%&-11%
CCN(C(=O)COC(=O)CNC(=O)c1sc2ccccc2c1Cl)C1CCCCC1	-1%	-18%
CC1CC(C)CN(c2oc(-c3ccco3)nc2C#N)C1 (configuration not stated)	-8%	-6%
COc1cccc(CNC(=O)c2ccc3c(c2)c(C)c(C)n3Cc2ccccc2)c1OC	-12%	-5%
CCc1ccccc1Oc1nc(NCCOC)nc2cc(-c3ccccc3)sc12	i	-13%
CCCCn1c(=N)n(CCOc2ccc(C)cc2)c2ccccc21	14µM*	u
CCCc1cc(=O)[nH]c(SCC(=O)c2cc(C)n(CCC)c2C)n1	x	-15%
COc1ccc(NC(=O)c2ccc3ccccc3n2)cc1S(=O)(=O)Nc1ccccc1Cl	0%	-18%
C=CCNC1=C(Cl)C(=O)N(c2cccc(Cl)c2Cl)C1=O	x	-11%
CCCOc1ccc(C2c3c(-c4ccccc4O)n[nH]c3C(=O)N2CCc2ccccc2)cc1OCC (configuration not stated)	u	u
Cc1ccc(-c2cnc(C(O)c3ccc(Cl)c(Cl)c3)[nH]2)cc1 (configuration not stated)	1%	4%
The list continues.
SMILES	VACV mCherry inh	Vaccinia Venus
O=C(CCN1CCCCC1)Nc1cccc(Cl)c1	-17%	-17%
CCCOc1ccc(/C(O)=C2/C(=O)C(=O)N(CCCOC)C2c2ccncc2)cc1 (configuration not stated)	x	-2%
CC(=O)Nc1cccc(NC(=O)CSc2nc3ccccc3o2)c1	i	3%
CCCCCCC[C@@H](C/C=C/CCC(=O)O)OC	i	0%
O=Cc1cn(CCC(=O)O)nc1-c1cccc2ccccc12	i	-2%
Cc1[nH]nc2c1C(c1cnn(C)c1)C(C#N)=C(N)O2 (configuration not stated)	-12%	-4%
COC(=O)c1cc(C#N)c(Oc2ccc(OC)cc2)nc1C	x	-23%
CCOc1ccc(NC(=O)Cn2c(=O)n(Cc3nc(-c4ccccc4)no3)c(=O)c3ccccc32)cc1	u	u
Cc1ccc(Cl)cc1N1CCN(C(=O)c2ccc(C)c(-n3c(C)nc4cccnc43)c2)CC1	-8%	-27%
COc1ccc(C(=O)CC2(O)C(=O)N(Cc3cccc(C(F)(F)F)c3)c3ccccc32)cc1 (configuration not stated)	-26%	-26%
COc1ccc(CNC(=O)C2CCN(S(=O)(=O)c3c(C)noc3/C=C/c3ccccc3F)CC2)cc1	-5%[7.34 µM]	-11%[7.34 µM]
Cc1csc(NC(=O)c2cn3ccccc3n2)n1	0%	-6%
CC(=O)NS(=O)(=O)c1ccc(N=c2ssc3c2-c2cc(C)c(C)cc2NC3(C)C)cc1	u	-15%
CN(C)C(CNC(=O)CNC(=O)c1ccc2ccccc2c1)c1ccccc1 (configuration not stated)	-15%	-5%

2 of the compounds above, bar-delimited:
canonical_smiles | VACV mCherry inh | Vaccinia Venus
COc1ccc(CNC(=O)C2CCN(S(=O)(=O)c3c(C)noc3/C=C/c3ccccc3F)CC2)cc1 | -5%[7.34 µM] | -11%[7.34 µM]
O=C(CCN1CCCCC1)Nc1cccc(Cl)c1 | -17% | -17%

Copied from the list:
CC(=O)Nc1cccc(NC(=O)CSc2nc3ccccc3o2)c1 in Vaccinia Venus: 3%
COC(=O)c1cc(C#N)c(Oc2ccc(OC)cc2)nc1C in Vaccinia Venus: -23%
